# High-throughput results as filed in PubChem.
# E coli growth = E. coli growth inhibition, primary screen, OD600 | actives 0.21% (n = 330,000) | OD600 absorbance (concentration not given with the values) | AID 1053175, 2014 | Escherichia coli growth, 23 h; stronger effect = lower value;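 active means OD600 absorbance below the run mean of sample wells minus 3.6 SD, in any replicate, cut at about 0.56 in these data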;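 further: stock transfer was 300 nL into about 60 µL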
# rRNA inh HTS = reduced GFP signal of wild-type E. coli, primary screen, bacterial rRNA inhibitor project, GFP/RFP fluorescence, OD600, single point; E. coli WT GFP vs humanized-ribosome RFP mutants, 24 h; stronger effect = lower value; DMSO median 0, no signal -100; GFP signal change (wild-type ribosome), % (concentration not given with the values); actives 1.6% (n = 350,000); AID 720706, 2013;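 active means significant combined selectivity score with lowered wild-type GFP, culture density cut under 30%, mutant RFP and density less affected; inactive means any of these conditions unmet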; further: one replicate is shown; some compounds called inactive have numbers as strong as hits
# AF4-AF9 inh = inhibitors of AF4 peptide binding to AF9, primary screen, biochemical, AlphaScreen, biotin-AF4 peptide, FLAG-AF9, single point; Protein AF-9 (Homo sapiens), P42568; inhibition, % at 10 µM; actives 0.47% (n = 350,000);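 active means every replicate reaching a set inhibition limit, whatever the replicate mean, cut at about 25% in these data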;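 further: 0% = plate neutral control median and 100% = total signal loss; the record names both 10 and 1 µM as test concentration; the first replicate is given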
# Beta apoptosis = inhibitors of cytokine-induced beta cell apoptosis, primary screen, luminescence; AID 435005, 2010; protection from apoptosis, % (no concentration beside the values); actives 0.8% (n = 300,000); INS-1E cytokine-induced death, ATP luminescence, 48 h; percent of positive-control rescue, neutral wells zero;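 active means all replicates at 75% or more, or half of them and the mean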;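 further: 0% = cytokine-treated negative control wells and 100% = positive control rescue; higher means more ATP so stronger rescue from cytokine killing; wells of about 40 µL received 100 nL stock; the first replicate is given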
# A1 inh = caspase 3/7 activation in MEF A1-2A-BIM cells, primary screen, A1 inhibitor project, cell-based, luminescence, HTS. Caspase-Glo 3/7 luminescence, 3 h; percent of clofoctol response, vehicle zero. caspase activation, % (concentration not given with the values). actives 0.066% (n = 330,000);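 active means over half of replicate activation scores above 10%, or exactly half above 10 with the replicate mean above 10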;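 further: wells of about 30 µL received 50 nL stock; many hits fall short of the cut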
# T cruzi inh = inhibitors of intracellular T. cruzi growth, primary screen, luminescence, NIH3T3 host cells | inhibition, % (test concentration not listed) | AID 1885, 2009 | T. cruzi beta-gal in NIH3T3, 90 h | actives 1.4% (n = 300,000);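 active means mean inhibition across valid replicates above about 55%, limit read from the data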;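 further: signal also drops with host cell toxicity which is not excluded here; 0% = plate median of DMSO wells and 100% = zero luminescence signal; higher percent means less beta-gal luminescence so fewer parasites; stock transfer was 50 nL into about 50 µL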
# FGF22 binding = binders of human FGF22 protein, primary screen, FGF22 synaptogenesis inhibitor project, biophysical, thermal shift, single point | Fibroblast growth factor 22 (Homo sapiens), Q9HCT0 | recombinant FGF22 thermal shift, SYPRO orange fluorescence; percent of sucrose octasulfate shift, DMSO zero | calls only at 9.99 µM | actives 1.5% (n = 340,000) | AID 651658, 2012;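 active means melting point raised past a set limit in the mean and every replicate; three in four hits are not shown here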
# Target sequence (Q9HCT0 whole entry, looked up): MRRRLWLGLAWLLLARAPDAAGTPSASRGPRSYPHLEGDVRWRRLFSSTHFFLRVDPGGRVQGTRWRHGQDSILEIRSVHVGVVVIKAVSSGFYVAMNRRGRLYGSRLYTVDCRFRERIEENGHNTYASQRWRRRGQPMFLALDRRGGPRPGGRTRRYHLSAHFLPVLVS
# UCH37 DUB inh = inhibitors of human UCH37 deubiquitinase, primary screen, biochemical, Ub-AMC cleavage, fluorescence | Ubiquitin carboxyl-terminal hydrolase isozyme L5 (Homo sapiens), Q9Y5K5 | purified proteasome/UCH37 | inhibition, % (concentration not given with the values) | actives 0.33% (n = 330,000) | AID 588478, 2011;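 active means mean of two replicates above 20%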;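 further: 0% = compound-free wells with enzyme and 100% = wells lacking proteasome; stock transfer was 100 nL into about 20 µL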
# Target sequence (Q9Y5K5 whole entry, looked up): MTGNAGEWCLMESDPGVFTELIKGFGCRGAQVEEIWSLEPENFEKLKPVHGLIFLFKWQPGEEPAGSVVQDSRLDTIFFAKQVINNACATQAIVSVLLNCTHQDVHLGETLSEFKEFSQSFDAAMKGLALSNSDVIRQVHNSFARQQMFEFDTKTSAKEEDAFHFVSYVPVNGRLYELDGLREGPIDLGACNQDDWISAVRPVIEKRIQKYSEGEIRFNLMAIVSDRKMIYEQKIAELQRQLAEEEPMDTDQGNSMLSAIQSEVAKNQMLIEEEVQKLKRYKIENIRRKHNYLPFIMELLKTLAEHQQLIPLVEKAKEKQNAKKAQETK
#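 Schedule: 30 min plus 25 min, room temperature / Material: human UCH37 within purified proteasomes / Technique: AMC fluorescence intensity at 355/460 nm / Buffer or medium: pH 7.4 Tris-HCl (50 mM) with ovalbumin, ATP-MgCl2, DTT / Controls: wells without proteasome as full block, compound-free enzyme plus substrate as uninhibited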
# rRNA inh HTS OD600 = further read-out of rRNA inh HTS, marked with its call; OD600 change, %; measured here: OD600 growth;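 optical density of the mix in the first replicate; 0 = DMSO median and -100 = no signal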
# rRNA inh HTS RFP = also measured in rRNA inh HTS; calls as there; RFP signal change, %; measured here: RFP humanized mutant strains;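 first replicate; 0 = DMSO median and -100 = no signal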
# Numbers without * were called inactive; i = inactive; x = not tested or not shown.
canonical_smiles,E coli growth,rRNA inh HTS,rRNA inh HTS OD600,rRNA inh HTS RFP,AF4-AF9 inh,Beta apoptosis,A1 inh,T cruzi inh,FGF22 binding,UCH37 DUB inh
NS(=O)(=O)c1cccc(NC(=O)CN2CCN(S(=O)(=O)c3ccc4c(c3)OCCO4)CC2)c1,0.705,3.2,11.1,-1.2,-2.5,-1.8,0.2,x,i,-1.3
CCCC1=C(C(=O)OCC)C(c2ccco2)n2ncnc2N1 (stereo not given),0.597,2.3,0.9,-0.7,-17.6,-0.5,0.0,-10.5,i,0.5
O=c1cc(CSc2nnc(C3CC3)n2Cc2ccccc2)nc2sccn12,0.667,3.4,8.7,1.3,-1.6,-0.9,0.5,-10.1,i,-8.3
CCOC(=O)c1ccc(CNS(=O)(=O)c2c(C)ccc3nsnc23)o1,0.732,x,x,x,x,-1.9,0.5,-12.0,x,-6.8
CCCCOCCCNCc1cccn1CCN1CCOCC1,0.662,6.3,7.4,-0.9,-1.5,-1.1,0.1,17.1,i,-0.1
Cc1ccccc1NC(=O)COc1nsnc1N1CCOCC1,0.698,x,x,x,x,-4.1,-0.4,0.7,x,1.2
Cc1cc(C)c2c(C(C)(C)C)nn(-c3ccccc3)c2n1,0.668,5.5,11.1,-0.2,1.4,-7.9,-0.4,-18.0,i,2.8
CCN(CC)c1ccc(C2C3CCCCC3(O)CCN2C(=O)c2cccs2)cc1 (stereo not given),0.686,x,x,x,x,-17.0,-0.7,12.1,x,-1.9

# The last three entries of the section before come first, to join the parts:
canonical_smiles,E coli growth,rRNA inh HTS,rRNA inh HTS OD600,rRNA inh HTS RFP,AF4-AF9 inh,Beta apoptosis,A1 inh,T cruzi inh,FGF22 binding,UCH37 DUB inh
Cc1ccccc1NC(=O)COc1nsnc1N1CCOCC1,0.698,x,x,x,x,-4.1,-0.4,0.7,x,1.2
Cc1cc(C)c2c(C(C)(C)C)nn(-c3ccccc3)c2n1,0.668,5.5,11.1,-0.2,1.4,-7.9,-0.4,-18.0,i,2.8
CCN(CC)c1ccc(C2C3CCCCC3(O)CCN2C(=O)c2cccs2)cc1 (stereo not given),0.686,x,x,x,x,-17.0,-0.7,12.1,x,-1.9
COc1ccc(C)cc1NC(=O)C1C2C=CC(C2)C1C(=O)O (stereo not given),0.698,x,x,x,x,x,0.7,-12.8,x,1.3
CCC(C(=O)N1CCOCC1)n1nc(C)c2sc3ccccc3c2c1=O (stereo not given),0.696,7.5,1.2,-0.9,-7.2,-9.1,-0.5,-8.5,i,5.5
COc1ccc(CN(CCN2CCOCC2)C(=O)c2c(F)cccc2F)cc1OC,0.697,8.6,11.0,-12.2,-50.2,x,-0.9,18.2,i,4.5
c1ccc(OCCN2CCOCC2)cc1,0.624,17.2,7.8,-0.8,3.8,x,0.9,-3.5,i,4.1
O=C(NC(=S)Nc1ccccc1Cl)c1cncc(C#Cc2ccccc2)c1,0.721,2.1,-1.6,-3.3,-0.8,x,-0.7,-21.1,i,5.0
CCOc1cc(C(C(=O)NCC2CCCO2)N(C(=O)Cn2nnc3ccccc32)c2ccc(C(C)=O)cc2)ccc1O (stereo not given),0.666,5.9,3.3,-1.2,0.6,0.2,1.0,10.8,i,5.5
Cc1ccc(NC2=C(N3CCCCC3)C(=O)c3ccccc3C2=O)cc1,0.675,x,x,x,x,76.2*,0.0,66.5*,x,22.6*
COc1cccc(C2C(C#N)=C(N)Oc3c2oc(CO)cc3=O)c1OC (stereo not given),0.701,x,x,x,x,-4.0,0.7,-8.0,x,3.8
COc1ccc(CN(C(=S)Nc2ccccc2)C2CC(=O)N(c3ccccc3)C2=O)cc1 (stereo not given),0.647,x,x,x,x,8.6,-0.1,22.5,x,-0.5
Cc1ccc(CN(C(=O)c2csnn2)C(C(=O)NC2CCCC2)c2cccnc2)cc1 (stereo not given),0.719,5.5,5.7,2.8,0.5,1.8,0.7,-21.7,i,6.6
OC(c1ccccc1)c1nccc2ccccc12 (stereo not given),0.664,-6.0,-4.6,0.7,0.0,-7.3,1.0,-11.9,i,4.5
COc1cc(OC)cc(C(=O)NCC(=O)N2CCC(C)CC2)c1,0.672,x,x,x,x,-8.4,-0.7,-7.3,x,3.3
N#CCCn1c(C(C#N)(CCC#N)CCC#N)nc2ccccc21,0.678,x,x,x,x,6.3,1.1,-18.0,x,3.6
O=C(NCCc1ccccc1)C1CCN(S(=O)(=O)N2CCCCCC2)CC1,0.712,7.8,6.4,-1.0,-3.9,2.4,0.0,-1.5,i,1.5
O=C(Nc1nnc(S(=O)(=O)Nc2ccccc2)s1)C1CCCCC1,0.743,-6.4,4.6,7.0,-4.3,-5.0,0.1,-14.4,i,4.0
CCCn1c(SCC(=O)NC(C)(C)C)nnc1-c1ccco1,0.677,14.8,4.0,3.5,-1.9,-3.8,0.2,-11.9,i,2.5
CCCCN1C(=O)CC(Sc2ccccc2C(=O)O)C1=O (stereo not given),0.681,8.2,4.8,-4.9,-2.8,-6.6,-1.0,-7.2,i,2.7
CC(=O)Nc1cccc(NC(=O)CCc2ccccc2)c1,0.735,x,x,x,x,3.1,1.1,-14.6,x,2.6
CC(NC(=O)NCCCC(=O)O)(C(F)(F)F)C(F)(F)F,0.699,x,x,x,x,1.5,0.9,-13.0,x,1.9
C=CCNC(=O)C(=O)NCCOc1ccccc1Cl,0.712,6.6,13.1,-0.1,-1.7,0.8,-0.5,-15.4,i,1.4
Cc1oc(C(C)(C)C)cc1C(=O)NCc1ccc2c(c1)OCO2,0.694,11.0,3.6,0.9,-0.6,-6.8,0.7,7.6,i,5.3
CC(=O)c1c(C)oc2c1cc(NS(=O)(=O)c1ccc(C(=O)O)cc1)c1ccccc12,0.662,-21.4,-44.7,-6.1,1.3,-6.6,0.4,-4.0,x,7.5
COc1cc(OC)cc(C(=O)N2CCCC(Nc3ccc(F)cc3)C2)c1 (stereo not given),0.701,-12.2,-3.1,2.2,2.0,-1.9,0.2,-17.0,i,3.1
O=C(NCc1ccc2c(c1)OCO2)C(=O)Nc1cc2c3c(c1)CC(=O)N3CCC2,0.651,1.5,1.7,0.0,-3.6,-0.9,0.2,-1.4,i,2.3

# The list goes on:
# Order of values: E coli growth	rRNA inh HTS	rRNA inh HTS OD600	rRNA inh HTS RFP	AF4-AF9 inh	Beta apoptosis	A1 inh	T cruzi inh	FGF22 binding	UCH37 DUB inh
CC(Oc1ccc(F)cc1)C(=O)Nc1cccc(-c2nn[nH]n2)c1 (stereo not given)
  0.728	5.1	11.4	-3.3	-6.9	-5.5	-0.2	-8.9	i	0.8
N#Cc1ccc(OCC(=O)N2CCCC2=O)cc1
  0.743	6.4	9.6	-2.7	0.8	-2.7	-0.8	x	i	-2.6
C/C(CC(=O)Nc1ccc2c(c1)OCCO2)=N\NC(=O)Cc1ccc(Cl)cc1
  x	-0.6	-1.1	0.4	9.1	-3.5	-0.8	-1.9	i	x
Cc1onc(-c2ccccc2)c1C(=O)OCC(=O)c1ccccc1
  0.704	x	x	x	x	-0.2	-0.2	0.4	x	-0.7
COc1ccc(Oc2nnc(C)c3ccccc23)cc1
  0.721	x	x	x	x	0.7	0.4	8.8	x	3.8
Cc1ccc(C(=O)O/N=C(\N)c2ccc(Br)cc2)cc1C
  0.661	x	x	x	x	-2.1	0.7	13.0	x	7.3
CC(C)[C@H](NC(=O)OCc1ccccc1)C(=O)OCC(=O)c1ccccc1
  0.667	-0.9	-9.0	4.0	-2.8	-6.6	-5.3	x	i	1.4
CCOC(=O)c1c(C)nc(C)c(C(=O)OCC)c1-c1ccc(Br)cc1
  0.675	x	x	x	x	-1.6	1.1	32.1	x	5.6
NC(=O)c1ccccc1NC(=O)CN1CCN(Cc2ccc(Cl)cc2Cl)CC1
  0.691	-23.8	-24.8	-3.3	3.5	-0.1	0.4	14.8	i	-0.3
CCN(CC)C(=O)c1ccc(C(=O)c2ccccc2)cc1
  0.661	-4.1	0.2	4.0	1.2	-0.1	-0.2	-4.3	i	2.5
CS(=O)(=O)N(CC(=O)N1CCc2ccccc2C1)c1cccc(F)c1
  x	-2.9	-0.2	-1.2	1.2	-0.8	0.1	-10.3	i	x
COc1ccc2cc(-c3ccccc3)c(=O)oc2c1
  0.697	7.1	9.1	0.9	-1.6	7.8	-4.3	3.7	i	i
CCOc1ccccc1C(=O)NCC(=O)OCc1csc(CC(=O)Nc2ccc(C)cc2)n1
  0.703	x	x	x	-0.4	-2.9	0.0	x	i	1.1
Cc1c(-c2ccccc2)[n+](=O)c(-c2ccc(Cl)cc2)c(C)n1[O-]
  0.69	9.7	57.9	6.0	0.5	-3.8	-0.2	2.0	x	5.5
O=C(c1cc2cc(Br)cc(Br)c2oc1=O)N1CCCC1
  0.692	x	x	x	x	-1.8	-0.5	-7.0	x	3.4
COc1ccc(NC(=O)OC(CN2CCCCC2)C(F)(F)F)cc1 (stereo not given)
  0.73	x	x	x	x	-9.8	-0.3	16.5	x	2.9
NC(=O)c1c(/N=C/c2cccnc2)sc2c1CCCC2
  x	-20.5	6.2	2.8	-1.3	-3.1	0.1	8.6	i	x
Cc1nc2oc(C(=O)c3ccccc3)c(N)c2c2c1COC(C)(C)C2
  0.742	x	x	x	x	-0.5	1.8	6.0	x	-1.9
CC(C)(C)C1CCc2c(C(=O)N/N=C/c3cccs3)csc2C1 (stereo not given)
  x	4.1	-9.6	10.2	0.7	0.9	0.4	14.6	i	x
O=C(Nc1ccccc1Cl)c1cccs1
  0.719	x	x	x	x	x	0.4	-16.7	x	-0.2
CC(C)Cc1cc(C(=O)NCCN2CCOCC2)no1
  0.716	14.1	18.2	0.3	-2.4	-2.6	-0.1	-14.3	i	4.3
CC(=O)N(C)c1ccc(NC(=O)Nc2ccc(C)cc2)cc1
  0.704	8.1	14.2	-0.9	-2.3	2.1	-0.4	-0.6	i	1.4

# Only part of the results is shown; rates above refer to the full screens.
